Bioassay records as filed in PubChem.
STK33 kinase inh – blocks human STK33 kinase activity | Q9BYT3 | purified STK33, MBP phosphorylation, ADP-Glo luminescence | inhibition, % at 10 µM | 320,000 compounds, 0.073% hits;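 active = inhibition at or above 25%, using the most active replicate where run in duplicate; inactive = inhibition below 25%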
Target sequence (Q9BYT3 whole entry, looked up): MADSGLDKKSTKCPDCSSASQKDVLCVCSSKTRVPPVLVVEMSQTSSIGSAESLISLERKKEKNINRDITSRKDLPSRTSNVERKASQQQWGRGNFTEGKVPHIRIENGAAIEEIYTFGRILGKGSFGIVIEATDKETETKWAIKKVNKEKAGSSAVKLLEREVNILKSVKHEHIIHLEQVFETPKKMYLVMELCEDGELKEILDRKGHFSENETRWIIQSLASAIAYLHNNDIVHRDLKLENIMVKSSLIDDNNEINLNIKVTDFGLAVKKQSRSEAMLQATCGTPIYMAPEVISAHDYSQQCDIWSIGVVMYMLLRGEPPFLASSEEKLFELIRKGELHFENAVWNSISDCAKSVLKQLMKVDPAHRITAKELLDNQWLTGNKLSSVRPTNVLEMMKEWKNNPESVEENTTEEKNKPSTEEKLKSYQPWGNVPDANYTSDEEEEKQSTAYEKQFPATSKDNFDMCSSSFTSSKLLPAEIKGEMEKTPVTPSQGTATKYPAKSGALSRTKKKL
The depositor's hits bear a star.

SMILES | STK33 kinase inh
O=[N+]([O-])c1ccc(Oc2ccc(S(=O)(=O)N3CCOCC3)cn2)cc1 | -0.1
Fc1ccc(C2c3cccn3CCN2C(=S)Nc2cccc(Br)c2)cc1 (stereo unspecified) | -2.4
CC(C)CNC(=O)c1ccccc1NC(=O)c1ccc(CN2CCOCC2)cc1 | 2.6
NC(=O)C1(N2CCCCC2)CCN(C(=O)CSc2nc3ccccc3[nH]2)CC1 | -0.7
COc1ccc(C(=O)c2coc3ccc(OC(C)=O)cc23)cc1 | -0.6
O=C(Cc1ccccc1)NCCSCc1ccccc1 | 9.5
C[C@@H]1CC=C[C@H]2[C@H]1C(=O)N(Cc1ccccc1)[C@H]2c1ccc(-c2ccc(F)cc2)cc1F | 1.3
COc1cccc(-n2nnc3c(=O)n(CC(=O)Nc4ccc(C)cc4)cnc32)c1 | -0.1
Cc1ccc(S(=O)(=O)/N=C(\CSC(N)=O)Nc2ccccc2)cc1 | -0.7
FC(F)(F)Oc1ccccc1-c1nnc(-c2cccc(C(F)(F)F)c2)o1 | -1.5
CN1/C(=C\C(=O)COC(=O)c2ccc(O)c(O)c2)C(C)(C)c2ccccc21 | 2.3
COc1ccc(CN2CCOCC2)cc1 | 0.1
COc1ccc(C(=O)NCCS(=O)(=O)NCc2ccccc2OC)cc1 | -1.2
CCOC(=O)N1CCN(C(=O)CS(=O)Cc2nc(-c3ccc(C)cc3)oc2C)CC1 (stereo unspecified) | -0.5
Cc1cc(NS(=O)(=O)c2ccc(NC(=S)NC(=O)c3cccnc3)cc2)no1 | 0.0
Cc1cc(C)nc(NC(=S)Nc2cccc(F)c2)c1 | -1.8
CCC(C)C(NC(N)=O)C(=O)NC1CCC(C)CC1 (stereo unspecified) | 2.9
COc1ccc(-c2nc3ccccc3c(=O)n2CCCn2ccnc2)cc1 | -1.5
Oc1ccc(CNC2CCCCC2)cc1 | -2.3
CCCC(=O)Nc1ccc(C(N)=O)cc1 | 0.6
O=C(O)CCC(=O)Nc1ccc(Br)cc1C(=O)c1ccc(Cl)cc1 | -0.6
Cc1c(O)nc(SCC(=O)Nc2nccs2)n(-c2ccccc2F)c1=O | -1.3
CCOC(=O)N1CCN(C(=O)CCC(=O)N2CCOc3ccc(C)cc32)CC1 | -1.4
CCc1noc(C)c1C(=O)Nc1nc(-c2ccc(OC)cc2)cs1 | -0.7
O=C(Nc1nnc(-c2ccccc2)o1)c1cccc(N2C(=O)CCC2=O)c1 | 0.7
CCOC(=O)CNC(=O)COc1coc(CN2CCN(c3ccccc3)CC2)cc1=O | -2.0
Cc1ccc(C(=O)c2sc3nsc(C)c3c2N)cc1 | -0.5
CCCN1CNC(=S)N(CCc2ccccc2)C1 | -1.7
Cc1ccc(-c2cc(C(=O)NCc3ccc4c(c3)OCO4)no2)cc1 | -1.2
COc1ccc(NC(=O)C2CCCN(S(C)(=O)=O)C2)cc1OC (stereo unspecified) | -1.5
COc1ccc(OC2OC3COC(c4ccco4)OC3C(O)C2NC(C)=O)cc1 (stereo unspecified) | 1.3
O=S1(=O)C=C(SCCN2CCCC2)c2ccccc21 | 0.3
COc1ccc2cc3cc(C(=O)N4CCCC(C)C4)oc3nc2c1 (stereo unspecified) | -0.5
CC(C)Oc1cccc(C(=O)C2CCCN(Cc3cnn(C(C)C)c3)C2)c1 (stereo unspecified) | -1.5
Cc1cc(C)c(S(=O)(=O)N(CC(=O)O)CC(=O)O)c(C)c1 | 2.8
CCOC(=O)C1CCC2(CC1)C(C#N)=C(N)Oc1n[nH]c(C)c12 (stereo unspecified) | 4.5
O=C(N/N=C/C=C/c1ccccc1)C(O)c1ccccc1 (stereo unspecified) | -0.7
CCCCN(S(=O)(=O)c1ccccc1)S(=O)(=O)c1ccccc1 | -0.4
Cc1cccc(OCCCN2CCCCCC2)c1 | 0.2
N/C(=N\OC(=O)/C=C/c1ccccc1)c1ccccc1 | -1.9
CC1(C)CC(=O)C2=C(C1)NCN(Cc1ccccc1)C2 | 0.3
CCOC(=O)c1cc2ccc(OC(=O)c3ccco3)cc2oc1=O | 2.8
CC1(C(=O)NCC2CCCO2)Oc2cccnc2NC1=O (stereo unspecified) | -2.0
CC(=O)Nc1c([N+](=O)[O-])cc(C)c(Cl)c1[N+](=O)[O-] | -1.4
COC(=O)/C(=N\Nc1ccccc1)Sc1nnc(-c2ccc(OC)cc2)n1C | 0.2
CCN(CC(O)CON=C1c2ccccc2-c2ccccc21)S(=O)(=O)c1ccc(Cl)cc1 (stereo unspecified) | -1.4
CC(=O)/C(C(=N)N1CCN(c2cccc(Cl)c2)CC1)=C(\C)O | 2.2
Cc1ccc(Nc2nc(N)nc(CSc3nnc(-c4ccncc4)o3)n2)cc1 | -0.4
COc1ccc(C(=O)Nc2ccccc2C(=O)NCc2cccnc2)cc1 | 1.3
CCOc1ccc(S(=O)(=O)N(C)c2ccc(OCC(=O)Nc3nc4ccccc4s3)cc2)cc1 | 0.1
COc1ccccc1NC(=O)CN1CCN(CC(=O)Nc2cc(NC(C)=O)ccc2OC)CC1 | -1.4
Cc1cccc(C)c1NC(=O)C(c1ccc([N+](=O)[O-])cc1)N1CCCCC1 (stereo unspecified) | -1.7
CC1(C)CC(=O)c2c(n(-c3cccc4ccccc34)ccc2=O)C1 | -0.1
Cc1ccc(/C=[N+](/[O-])C2SC(=S)N(C)C2(C)C)cc1 (stereo unspecified) | -3.0
O=C(c1ccccc1)N1CCN(CCc2ccccc2)CC1 | -6.0
Cc1ccc(-n2nc3c(c2NC(=O)c2ccco2)CS(=O)(=O)C3)c(C)c1 | -0.6
Cc1cccc(C(C)C)c1NC(=O)c1ccc(COc2ccc3c(C)cc(=O)oc3c2)cc1 | -2.1
CCOC(=O)C1CCN(C(=O)c2cc(S(=O)(=O)N3CCCCC3)ccc2C)CC1 | 1.3
Cc1cccc(OCCn2c(=O)sc3ccccc32)c1 | -0.6
CC1CCN(S(=O)(=O)c2ccc(S(=O)(=O)N3CCC4(CC3)OCCO4)cc2)CC1 | -0.2

(list continues)
SMILES | STK33 kinase inh
CCN1C(=O)N(S(=O)(=O)c2ccc(C)cc2)[C@@H](c2ccccc2)C(C(=O)OC)=C1C | -0.3
Cc1cc2nc(-c3ccc(NC(=O)c4cccnc4)cc3)oc2cc1C | -5.4
O=C1C2C3CCC(C3)C2C(=O)N1CNc1ccccc1 (stereo unspecified) | 0.6
CCOC(=O)c1ccc(-n2c(CCC(=O)O)ccc2-c2ccc(F)cc2)cc1 | -0.6
O=C(O)c1ccc2c(c1)[C@@H]1C=CC[C@@H]1[C@H](c1ccccn1)N2 | -6.4
O=C(c1cnn2c(C(F)F)cc(-c3ccccc3)nc12)N1CCN(Cc2ccc3c(c2)OCO3)CC1 | -0.4
Cc1cc(C(F)(F)F)n2ncc(C(=O)O)c2n1 | -0.4
O=C(Nc1cnc2sc3c(n2c1=O)CCCC3)c1ccc(F)cc1 | -0.6
Cc1cccc(NC(=O)c2cccnc2Oc2ccccc2)c1C(=O)O | -3.9
Cc1cc(C)cc(NC(=O)c2ccc(N3C(=O)C4CCCCC4C3=O)cc2)c1 (stereo unspecified) | 2.3
CCCCSc1nc(NCc2ccco2)c2c3c(sc2n1)COC(C)(C)C3 | 0.4
Cn1c(=O)c2c(nc(CN3CCc4ccccc4C3)n2Cc2ccc(Cl)cc2)n(C)c1=O | -0.5
Cc1ccc(CNC(=O)CN2C(=O)CSc3ccc(S(=O)(=O)N4CCC(C)CC4)cc32)cc1 | -0.7
COc1ccc(-c2nnn(CC(=O)N(CC(=O)NC3CCCC3)c3ccccc3)n2)cc1OC | -2.0
Cc1ccc(S(=O)(=O)n2[nH]c(=O)cc2NC(=O)c2cccs2)cc1 | -0.1
COc1ccc(/C=N\NC(=O)c2nn(C)cc2Cl)cc1CN1CCOCC1 | -0.8
Cn1c(COc2ccc(Cl)cc2)nc2ccccc2c1=O | -0.6
O=C(CSc1nnc(-c2ccccc2)o1)NC1CC1 | 0.8
CC1CC(C)CN(C(=O)CNS(=O)(=O)c2cccs2)C1 (stereo unspecified) | 1.7
CCNC(=O)CN1C(=O)NC(CCc2ccccc2)C1=O (stereo unspecified) | -0.5
O=C(NNS(=O)(=O)c1ccccc1)C1CC(c2cccnc2)=NO1 (stereo unspecified) | 0.4
O=C(CSc1nnc(-c2ccccn2)n1Cc1ccccc1)Nc1ccc2c(c1)OCO2 | -0.7
CC(=O)Nc1ccc(S(=O)(=O)Nc2cccc(C(=O)NC(C)(C)C)c2)cc1 | 0.4
O=C1CC(c2ccccc2)=Nc2ccccc2N1Cc1ccccc1 | -1.3
COc1ccc(C(=O)O/N=C(\N)c2ccccn2)cc1[N+](=O)[O-] | 1.3
COc1ccc([N+](=O)[O-])cc1NC(=O)C(C)OC(=O)CSC(C)C(=O)Nc1cc(C)on1 (stereo unspecified) | -0.2
O=c1[nH]c2cccc(F)c2n2cccc12 | 2.6
COCCN1CN(S(=O)(=O)c2cccc(Cl)c2)c2nc3ccccc3nc21 | 0.9
COC(=O)C1CCN(C(=O)COC(=O)CC(NC(C)=O)c2ccccc2)CC1 (stereo unspecified) | -1.4
COC(=O)CN(c1ccccc1F)S(=O)(=O)c1ccc(C)cc1 | -1.6
O=C(CSc1nnc(-c2ccccc2)n1Cc1ccccc1)NC1CC1 | -0.8
O=C(/C=C/c1cccs1)Nc1ccc(N2CCOCC2)c(S(=O)(=O)Nc2cc(Cl)ccc2Cl)c1 | -0.4
CC(C)C(=O)Nc1nnc(SCC(=O)NC2CCCC2)s1 | 0.6
CCCN1C(=O)C2(SC(NC(C)=O)=NN2C(C)=O)c2cc(C)cc(C)c21 (stereo unspecified) | -2.9
CCOc1ccc(NC(=O)c2ccc(NC(=O)COC(=O)Cc3ccc(OC)cc3)cc2)cc1 | -1.2
COc1ccc(CC(=O)N2CC(C)CC(C)C2)cc1 (stereo unspecified) | -3.0
CCCCNC(=O)c1onc(CSc2cccc(OC)c2)c1C(=O)NCCCC | -0.2
CCOCCOc1cccc(C(=O)NC(c2ccccc2)c2ccccc2)c1 | -2.4
CN1CCN(Cc2nc(-c3cccs3)no2)CC1c1ccccc1 (stereo unspecified) | -1.0
CCCN1CCC(=O)N([C@H](COc2ccccc2)c2ccccc2)CC1 | 0.0
COc1ccc(-c2csc3ncn(Cc4ccccc4)c(=O)c23)cc1 | 0.5
COc1ccc(CN2C(=O)C(C)=C(C)C2OC)cc1 (stereo unspecified) | -0.8
C[C@@H]1CC[C@@]2(O[C@H](CCO)C[C@H](O)[C@H]2O)O1 | -0.8
CCCCn1c(=O)c(CCC(=O)O)nc2ccccc21 | -0.9
COc1ccc(NC(=O)c2ccccc2-c2ccc(C(F)(F)F)cc2)cc1S(=O)(=O)N1CCOCC1 | -1.2
O=C(NCCCN1CCCC1=O)c1ccc(NS(=O)(=O)c2cccc([N+](=O)[O-])c2)cc1 | -0.2
Cc1ccc2nsnc2c1N | -1.4
Cc1cc(N2CCCC2)ccc1/C=C1\NC(=S)N(C)C1=O | -0.9

Another view of 4 compounds above.
O=C(NCCCN1CCCC1=O)c1ccc(NS(=O)(=O)c2cccc([N+](=O)[O-])c2)cc1
  STK33 kinase inh = -0.2

COc1ccc(NC(=O)c2ccccc2-c2ccc(C(F)(F)F)cc2)cc1S(=O)(=O)N1CCOCC1
  STK33 kinase inh = -1.2

CCCCNC(=O)c1onc(CSc2cccc(OC)c2)c1C(=O)NCCCC
  STK33 kinase inh = -0.2

C[C@@H]1CC[C@@]2(O[C@H](CCO)C[C@H](O)[C@H]2O)O1
  STK33 kinase inh = -0.8

(further entries)
SMILES | STK33 kinase inh
Cn1ccnc1C(O)c1ccco1 (stereo unspecified) | 0.3
N#CCCn1c(SCC(=O)NCCc2ccc(F)cc2)nc2ccccc21 | -0.6
O=C(CN1CCC(C(=O)c2ccc3c(c2)OCCO3)CC1)Nc1ccccc1C(F)(F)F | 0.3
CCOc1ccc(Oc2ccccc2NC(=O)CCNC(C)=O)cc1 | -1.3
Cc1ccc(NS(=O)(=O)c2ccc(CCC(=O)NCc3ccccn3)cc2)cc1 | 0.1
O=C(N[C@@H](Cc1ccc(O)cc1)C(=O)O)c1ccc(C(F)(F)F)cc1 | 0.1
O=C(COc1ccc(Br)cc1)OCCN1CCCCC1 | -0.5
CCC1(c2ccccc2)NC(=O)N(CC(=O)Nc2ccccc2N2CCCC2)C1=O (stereo unspecified) | -0.7
O=C(/C=C/c1c(F)cccc1Cl)Nc1nn[nH]n1 | 0.2
S=C(NCc1ccco1)Nc1ccc(Cl)cc1Cl | -0.2
COc1cc(C2=NOC(C(=O)NCc3ccc(F)cc3)C2)cc(OC)c1OC (stereo unspecified) | 2.0
COC(=O)CCC(=O)N1CCCC(CO)(Cc2ccccc2C)C1 (stereo unspecified) | -1.9

Structural class: those above containing an NH in an aromatic ring
SMILES | STK33 kinase inh
NC(=O)C1(N2CCCCC2)CCN(C(=O)CSc2nc3ccccc3[nH]2)CC1 | -0.7
CCOC(=O)C1CCC2(CC1)C(C#N)=C(N)Oc1n[nH]c(C)c12 (stereo unspecified) | 4.5
Cc1ccc(S(=O)(=O)n2[nH]c(=O)cc2NC(=O)c2cccs2)cc1 | -0.1
O=c1[nH]c2cccc(F)c2n2cccc12 | 2.6
O=C(/C=C/c1c(F)cccc1Cl)Nc1nn[nH]n1 | 0.2

Returning to the listing, repeating the 3 entries before the break.
SMILES | STK33 kinase inh
S=C(NCc1ccco1)Nc1ccc(Cl)cc1Cl | -0.2
COc1cc(C2=NOC(C(=O)NCc3ccc(F)cc3)C2)cc(OC)c1OC (stereo unspecified) | 2.0
COC(=O)CCC(=O)N1CCCC(CO)(Cc2ccccc2C)C1 (stereo unspecified) | -1.9
COc1ccccc1NS(=O)(=O)c1ccc2ccccc2c1 | 0.7
NNC(=O)C(Cc1cnc[nH]1)NC(=O)OCc1ccccc1 (stereo unspecified) | -2.3
COC(=O)C1(C)CCc2cc(OC)ccc2C1=O (stereo unspecified) | -0.6
O=C(CNc1ccccc1)N/N=C/c1ccc2c(c1)OCO2 | 0.6
Cc1sc2nc(COC(=O)c3ccc(N4CCCC4)c([N+](=O)[O-])c3)[nH]c(=O)c2c1C | -2.4
C[C@@H](NC(=O)[C@@H]1Cc2ccccc2CN1)C(=O)Nc1ccc2c(c1)OCCO2 | 0.7

Not all compounds are listed, and most or all hits are left out here.
